Mtb hypoxia rep – Mtb hypoxia fluorescent reporter inhibition; M. tuberculosis hypoxia-regulated fluorescent reporter, fluorescence; fluorescence inhibition, % (no concentration beside the values); 300,000 tested, 0.1% active;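 active = 35 to 45% if threefold the growth effect, above 45% if 1.5-fold the growth effect; inactive = the rest, general growth blockers included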;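 also: wells of about 50 µL received 100 nL stock; 0% = vehicle wells and 100% = reference inhibitor wells; whole bacteria with a GFP reporter of the hypoxia response; strong numbers were not always called active; many hits fall short of the cut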
Bead autofluor – counter-screen for toxin protease inhibitors: compound fluorescence; fluorescence intensity (no concentration beside the values); AID 624483; 360,000 tested, 3.1% active; compound autofluorescence counterscreen, microsphere flow cytometry; stronger effect = higher value;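 active = at least 3 SD above the mean of all compounds, about 16000 in these data; inconclusive = too few beads counted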;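 also: 100 nL of 1 mM stock went into each well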
Sa RN4220 lethal – kills Staphylococcus aureus RN4220; inhibition, % (concentration not given with the values); 330,000 tested, 0.33% active; S. aureus RN4220 growth, OD600, 16 h;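 active = z-score of -3 or lower and OD600 up to 0.18 on both plates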;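 also: plate controls were untreated cells for no effect and reference antibiotic for full effect; stock transfer was 100 nL into about 80 µL; one replicate is shown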
PrP 5UTR inh – suppresses PrP 5' UTR mRNA reporter expression | cell-based PrP 5' UTR mRNA reporter, plate reader | inhibition, % (concentration not given with the values) | 340,000 tested, 0.35% active;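 active = every replicate at 50% or more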;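 also: 0 = median of the neutral control wells; tested in H4 reporter cells; numbers are from one replicate; inactives centre near -14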
BJeLR viability – kills HRASV12-expressing BJeLR cells. BJeLR (HRASV12) viability, CellTiter-Glo ATP luminescence, 48 h; reference of the scale not given here. inhibition, % (test concentration not listed). 300,000 tested, 0.17% active;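 active = replicate mean above 50%; inconclusive = above 50% but judged a plate artefact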;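 also: 50 nL library stock added to about 25 µL; numbers are from one replicate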
ugtP null kill – compounds lethal to S. aureus RN4220 ugtP deletion mutant; OD600 growth, 16 h; some inactives read as strong as hits; growth inhibition, % (no concentration beside the values); 330,000 tested, 0.54% active;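 active = z-score under -3 and OD600 up to 0.15 on both plates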;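 also: plate controls were untreated wells for no effect and antibiotic for full effect; wells of about 80 µL received 100 nL stock; the first replicate is given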
Mtb hypoxia rep growth – further read-out of Mtb hypoxia rep, marked with its call; growth inhibition, %; measured here: M. tuberculosis growth (absorbance);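 0% = vehicle and 100% = reference antibiotic; read after six days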
Starred values were filed as active, the others as inactive; ? = inconclusive; . = not tested or not shown.

SMILES	Mtb hypoxia rep	Mtb hypoxia rep growth	Bead autofluor	Sa RN4220 lethal	PrP 5UTR inh	BJeLR viability	ugtP null kill
c1ccc(-c2ccc(-c3cnc4n3CCCCC4)cc2)cc1	.	.	2499	-13	-43	4	-3
Cc1c(CCC(=O)N[C@@H](C)C(=O)O)c(=O)oc2cc3occ(-c4ccccc4)c3cc12	1	2	3069	4.1	3	-12	-16
CCn1c(=O)c2cc(S(=O)(=O)NCCOc3ccccc3)ccc2n(CC)c1=O	16	3	5935	6.5	-35	-11	3
COC(=O)c1ccc(NC(=NS(=O)(=O)c2ccccc2)c2ccccc2)cc1	5	-7	.	-0.7	.	.	3
COc1ccc(NC2CCCCC2NS(=O)(=O)c2ccc(C)cc2)cc1 (centres undefined)	11	10	6023	2.8	-7	1	-1
CCOC(=O)c1ccc(NC(=O)CNC(=O)C2CCCCC2)cc1	5	2	5176	-1.7	-1	3	18
CC(Oc1cccc(Cl)c1)C(=O)Nc1ccccc1C(=O)N1CCCCC1 (centres undefined)	-1	-3	5548	5.3	-14	-2	3
CCOC(=O)C(Cc1ccc(OC)c([N+](=O)[O-])c1)NC(=O)CCC(=O)Nc1ccc(C)cc1 (centres undefined)	18	2	5112	2.7	-3	-9	4
Oc1ccccc1C1NCc2ccccc2-n2cccc21 (centres undefined)	6	-5	3377	2.8	-16	-12	0
CC(C)(C)NC(=O)CC1C(=O)NCCN1Cc1c(F)cccc1Cl (centres undefined)	0	14	2489	3.5	-20	1	11
Cn1cc(CNCCCn2ncc3ccccc32)c(-c2ccccc2F)n1	4	-5	10149	3.0	-15	-3	8
Cn1c(N)c(C(=O)COC(=O)C2=COCCO2)c(=O)n(C)c1=O	10	7	2963	3.8	-1	-3	-3
O=C(NCc1ccc(OC(F)(F)F)cc1)C1CC(c2cccc(F)c2)=NO1 (centres undefined)	21	10	3857	6.7	-10	-4	10
COC(=O)c1nnn(-c2nonc2N)c1-c1cccs1	7	-1	3400	4.8	-6	-3	8
O=C(OCC(=O)c1ccc[nH]1)c1ccc(F)c(S(=O)(=O)N2CCOCC2)c1	0	0	3147	4.5	-1	.	-2
Cc1ccc(C)c(NC(=O)C(Sc2ncnc3ccccc23)c2ccccc2)c1 (centres undefined)	4	0	2208	2.7	-19	-5	9
CC(C)C(OC(=O)c1ccc(Cl)nc1)C(=O)NC1CCCCC1 (centres undefined)	4	8	3754	2.1	-12	5	-2
Cc1ccc(CCNC(=O)C2CCN(c3nn4c(=O)cc(C)nc4s3)CC2)cc1	-5	0	2920	5.6	-16	9	13
COC(=O)c1ccccc1NC(=O)Nc1cccnc1	-1	7	2938	-3.9	-9	-3	-4
COc1cc(/C=C(/C(=O)c2cccs2)c2nc3ccccc3[nH]2)ccc1O	0	3	5650	7.4	-32	-2	-6
CCOc1ccc(CNS(=O)(=O)c2cc(CN3C(=O)c4cccnc4C3=O)ccc2OC)cc1	4	2	6607	1.0	-46	-10	6
O=C(Nc1ccccc1)Oc1cccc2cccnc12	12	5	4083	95*	-39	.	100*
CC(C)(C)CC(C)(C)c1ccc(O)c(CN2CCN(CCC#N)CC2)c1	2	6	4404	16	-11	3	9
CN(C)CCCN(Cc1cc2cc3c(cc2[nH]c1=O)OCO3)C(=S)NCc1ccco1	-5	-15	4665	-2.7	-39	-10	-8
O=[N+]([O-])c1nn(-c2ccc3c(c2)OCCO3)n(O)c1=Nc1ccc(Cl)cc1	9	11	5533	37	14	7	22
Cc1cccc(NC(=O)CCS(=O)(=O)c2ccc(Br)cc2)c1	-6	0	3741	-0.9	-4	-5	-1
COc1cccc(C(=O)Nc2nnc(S(=O)(=O)Nc3cccc(C)c3)s2)c1	-12	2	5896	20	-18	2	-5
O=[N+]([O-])c1ccc(Oc2ccc(S(=O)(=O)Nc3ccccc3)cc2)cc1	16	8	9561	4.3	-20	-5	44
CCN(C[C@H]1N[C@@](Cc2ccccc2)(C(=O)OC)[C@H]2C(=O)N(Cc3ccccc3)C(=O)[C@@H]12)C(=O)Nc1ccc(C)cc1	-5	5	3181	-0.8	-12	.	-2
COc1ccc(-c2nn(-c3ccccc3)cc2C(=O)NC(=S)NNC(=O)c2ccncc2)cc1	-1	13	4264	39	-5	1	19
CCn1c(=S)sc2nc(C)sc21	6	-6	6099	3.3	-13	-1	7
CC1CC(C)CN(CC(=O)N2CCc3[nH]c4ccccc4c3C2)C1 (centres undefined)	.	.	5626	2.3	-16	7	-3
CCN(CC(=O)Nc1ccc(NC(C)=O)cc1)C(=O)c1ccc(N2C(=O)c3ccccc3C2=O)cc1	13	0	4114	2.3	-11	.	1
Cc1cc(-c2n[nH]c(=S)n2/N=C/c2sccc2C)n[nH]1	.	.	2148	.	-36	0	.
COc1ccc(C)cc1NC(=O)c1cnc2n(c1=O)CCS2	10	4	8536	1.2	-26	-19	15
COc1ccc(N(C)C(=O)Cc2c(C(=O)O)n(C)c3ccccc23)c(OC)c1	16	5	3385	6.5	-41	5	2
CC(C)CC1CCCC12NC(=O)NC2=O (centres undefined)	12	10	3791	1.4	-16	.	0
CC(=O)Oc1cc(C(C)C)c(OCCN(C)C)cc1C	8	-5	6440	3.7	24	-4	0
C=CCN=C1S/C(=C\N(C)C)C(=O)N1S(=O)(=O)c1ccc(C)cc1	-2	10	3377	4.3	-27	.	2
Cn1ccc2cc(OCc3ccccc3)ccc21	7	8	2953	2.4	-112	.	9
Nc1cc(=O)[nH]c(SCC(=O)N2CCN(S(=O)(=O)c3ccc4ccccc4c3)CC2)n1	-1	-1	2161	3.6	-14	5	-5
CCOc1ccc(NC(=O)CNc2cccc(S(=O)(=O)N3CCCCCC3)c2)cc1OCC	0	2	3830	3.8	-31	.	7
O=C(OCc1cccc([N+](=O)[O-])c1)c1cc2ccccc2oc1=O	7	8	3748	0.7	-15	-13	2
O=[N+]([O-])c1ccccc1NCc1c(O)ccc2ccccc12	.	.	2988	.	-16	-9	.
CN(c1ccc(C(=O)N2CCOCC2)cc1[N+](=O)[O-])C1CCCCC1	8	2	8181	2.6	-51	-5	7
O=C(COC(=O)COc1ccccc1)Nc1ccc2c(c1)OCCO2	19	12	3645	5.0	-5	.	8
COC(=O)c1cc(CNC(=O)c2ccc(O)c(Cl)c2)ccc1OC	3	2	2126	-1.7	-1	-2	3
CCCC(=O)N1CCN(c2ccc(NC(=O)c3ccco3)cc2)CC1	11	13	3309	4.6	-18	-3	14

In the list so far, these have two or more sulfur atoms.
SMILES	Mtb hypoxia rep	Mtb hypoxia rep growth	Bead autofluor	Sa RN4220 lethal	PrP 5UTR inh	BJeLR viability	ugtP null kill
COc1cccc(C(=O)Nc2nnc(S(=O)(=O)Nc3cccc(C)c3)s2)c1	-12	2	5896	20	-18	2	-5
CCn1c(=S)sc2nc(C)sc21	6	-6	6099	3.3	-13	-1	7
Cc1cc(-c2n[nH]c(=S)n2/N=C/c2sccc2C)n[nH]1	.	.	2148	.	-36	0	.
C=CCN=C1S/C(=C\N(C)C)C(=O)N1S(=O)(=O)c1ccc(C)cc1	-2	10	3377	4.3	-27	.	2
Nc1cc(=O)[nH]c(SCC(=O)N2CCN(S(=O)(=O)c3ccc4ccccc4c3)CC2)n1	-1	-1	2161	3.6	-14	5	-5

Next section
SMILES	Mtb hypoxia rep	Mtb hypoxia rep growth	Bead autofluor	Sa RN4220 lethal	PrP 5UTR inh	BJeLR viability	ugtP null kill
O=C(C[n+]1ccccc1)Nc1cc(C(F)(F)F)ccc1Cl	4	-6	11221	-0.8	-22	1	2
CCc1c(C)c2ccc(OC3CCCCC3=O)cc2oc1=O (centres undefined)	-3	6	2928	4.3	-37	8	11
CCn1cc(C(=O)NCc2ccc(C)o2)c2cc(OC)c(OC)cc2c1=O	.	.	4803	1.8	-17	-1	1
COC(=O)CCCCCN1C(=O)NC(c2ccccc2)C(C(=O)OCc2ccccc2)=C1C (centres undefined)	7	0	2940	-4.5	-1	-16	-32
O=C(O)c1ccnc(Cl)c1	15	5	2662	4.2	-26	7	11
Cc1cc(C(=O)Oc2ccccc2C(=O)O)c(C)o1	.	.	3077	-0.1	-18	1	3
Fc1ccccc1CSc1ncn[nH]1	-2	-6	3369	4.6	-14	-9	8
O=C(NCCc1nccs1)C1CCC(=O)N(Cc2cccc(C(F)(F)F)c2)C1 (centres undefined)	0	3	6244	3.9	-5	4	1
CN(C(=O)CSc1nnc(-c2ccccc2)o1)c1c(N)n(Cc2ccccc2)c(=O)[nH]c1=O	-3	3	4491	-1.9	-30	-8	-4
c1ccc(-c2nnc(-c3ccccc3)o2)cc1	.	.	5674	3.1	-127	-6	-10
CN(CCCN1CCOCC1)C(=O)c1cc(COc2cccc(C(F)(F)F)c2)on1	-3	7	5537	2.0	6	-3	2
CSC1=NCCN1C(=O)COc1ccccc1	.	.	4364	3.1	25	7	2
O=C(N/N=C/c1ccccn1)c1ccc(NC(=O)c2ccc(F)cc2)cc1	.	.	4679	.	-8	-5	.
CCOc1ccc(/C=C/C(O)=C2/C(=O)NC3(C)CC2c2ccccc2O3)cc1OC (centres undefined)	-9	1	4306	1.6	-25	36	4
COc1ccc(-c2cc(=O)oc3cc(OCC(=O)NCC(O)c4ccccc4)ccc23)cc1 (centres undefined)	.	.	5318	-5.9	-13	10	2
O=C(CSc1nnc(-c2ccc(O)cc2)o1)Nc1cccc(O)c1	11	1	6117	-0.2	-69	4	-15
Cc1ccc(N2C(=O)Nc3ccc(Br)cc3C2(O)C(=O)NCCN(C)C)cc1C (centres undefined)	3	7	3973	1.3	-28	0	18
C=CCN1c2ccccc2C(=O)CS1(=O)=O	16	12	2697	14	-12	.	9
CCC(=O)c1ccc(OCCSc2ncccn2)cc1	23	14	.	26	-100	11	1
CC(C)(C)C(=O)Nc1sc2c(c1C(=O)Nc1ccccn1)CCCC2	-11	-1	4018	-11	-6	-12	3
Cc1ccc(C(O)(CCN2CCCCC2)c2ccccc2)cc1 (centres undefined)	-1	-5	3367	0.3	-10	-6	6
CC1(C)CC2(CCO1)C(Nc1ccccc1)=NC(=S)N2CC(N)=O (centres undefined)	2	-2	4236	3.0	-29	15	9
O=C(OCc1cncs1)c1cccs1	10	9	3396	1.7	-39	4	3
CCO[C@H]1OC(C(=O)N2CCN(Cc3ccc4c(c3)OCO4)CC2)=C[C@@H](c2csc3ccccc23)[C@@H]1CCCO	.	.	2897	.	-2	1	.
O=C(CSc1nc(=O)n(CCCN2CCOCC2)c2c1CCCC2)Nc1ccc(F)cc1F	-2	4	.	-0.4	-8	4	-1
CCCC(=O)NC(=S)Nc1ccc(NC(=O)c2cccs2)cc1	.	.	8951	2.8	-38	-2	72
O=C(N/C(=C/c1cccnc1)C(=O)N1CCCCCC1)c1cccc(Br)c1	21	18	5586	3.5	-15	-8	0
COc1ccc(NC(=O)CNS(=O)(=O)c2ccccc2)cc1Cl	7	-1	8130	1.7	-24	-14	-2
CC(C)N1C(=S)N(Cc2ccco2)C(=O)C1CC(=O)Nc1ccccc1 (centres undefined)	13	3	4107	2.7	-18	-4	3
CCOC(=O)c1c(S(=O)(=O)NCC2CCN(CCc3cccs3)CC2)c(C)n(C)c1C	.	.	6682	.	-4	-15	.
CC(=O)Nc1ccc(S(=O)(=O)NC2CC2)cc1	2	-2	3620	2.4	-19	-8	1
CCOc1ccccc1C(=O)NC(C(=O)N(C)Cc1ccc2c(c1)OCO2)C(C)C (centres undefined)	-5	3	4005	4.1	-20	.	7
O=C(Nc1ccc([N+](=O)[O-])cc1)N1CCN(C(=O)C2CCCO2)CC1 (centres undefined)	12	-3	6199	1.5	-19	4	8
COC(=O)CN1C(=O)[C@H]2[C@@H](C3CC3)N3C(=O)CN(Cc4ccc(-c5ccccc5)cc4)C(=O)[C@@]3(Cc3ccccc3)[C@H]2C1=O	.	.	3846	.	-8	-5	.
COc1ccc(C2CC(=O)C=C(NCC3CCCO3)C2)cc1 (centres undefined)	.	.	4793	-0.1	-2	7	3
CN(CC(=O)Nc1c(Cl)cccc1Cl)C(=O)c1ccccc1-c1nc2ccccc2s1	.	.	?	.	4	10	.

Screens as filed in PubChem BioAssay.
